Assay outcomes as filed in PubChem BioAssay.
Menin MLL FP FL – menin-MLL binding inhibition, fluorescein peptide. Fluorescence polarization, fluorescein-MLL peptide displacement from menin. FP activity change, % at 61.4 µM. 290,000 tested, under 10 active. AID 1766; inconclusive = falling polarisation curve, or a change in total fluorescence; inactive = total fluorescence flat and polarisation flat or rising; no compound was filed as active; the % refers to the polarisation; negative = inhibition;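 further: % of control where 0% means no effect; inhibitors lower the polarisation; unlabelled MLL peptide was the positive control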
ClpP mod – qHTS Assay for Activators of ClpP | Potency, µM (highest dose often 57.5 µM), without a hit: at the highest dose activity change, negative = active | 340,000 compounds, 1.9% hits | purified B. subtilis ClpP, FRET peptide cleavage, 20 min | ATP-dependent Clp protease proteolytic subunit (Bacillus subtilis (strain 168)), P80244; active = well fitted falling curve with a large enough effect; inconclusive = small, poorly fitted or top-dose-only effect; inactive = no such curve, though single readings can be large or run the other way; further: potency means the concentration at half of the fitted maximal effect; the source files actives as falling curves though it sought activators and does not explain the sign; nearly all actives have a fitted effect of over 65% in size; many hits overshoot -100%
Target sequence (P80244 whole entry, looked up): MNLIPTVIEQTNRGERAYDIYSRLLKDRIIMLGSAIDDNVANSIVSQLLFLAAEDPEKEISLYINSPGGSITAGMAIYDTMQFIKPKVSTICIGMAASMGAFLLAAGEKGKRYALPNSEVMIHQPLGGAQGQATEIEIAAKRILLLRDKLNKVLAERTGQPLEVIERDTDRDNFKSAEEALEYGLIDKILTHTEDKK
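Buffer: 100 mM Tris/HCl pH8, 100 mM KCl, 0.05% low protease BSA, 2.5% glycerol, 0.01% Tween-20. ClpP 10 microg/mL final; 20 min RT; delta FRET normalized to ADEP and DMSO controls.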
gsp antag – antagonizes gsp, the McCune-Albright syndrome mutation. Potency, µM (doses to about 76.9 µM), without a hit: top-dose activity change, negative = inhibition, hits mostly inhibitors. gsp-mutant cells, cAMP HTRF, 30 min; control for the full effect not named in the record. 340,000 compounds, 0.4% hits; active = falling curve of any shape with a large fitted effect; inconclusive = falling curve, mostly with a smaller effect; inactive = flat or rising curve; cell line not stated here;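 further: intracellular cAMP measured with PDE inhibitor Ro 20-1724 present during compound exposure; potency means the concentration at half of the fitted maximal effect; on the % scale 0 is the no-effect control and ±100 the full control effect; nearly all actives have a fitted effect of over 65% in size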
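HTRF cAMP measurement after 30 min RT detection following 30 min, 37C compound treatment alongside […] (added as 300 uM solution) in G418-selected cells seeded at 2000/well and grown 16–24 h.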
TRPML1 agonist – activates the human TRPML1 channel; Q9GZU1; TRPML1-expressing cells, Ca2+ dye fluorescence, FDSS; host cell line not named in the record; reference of the full effect not given here; activation, % (test concentration not listed); 410,000 compounds, 0.12% hits; in the data active = activation above about 50%; inconclusive = about 30% to 50%; inactive = below about 30%; further: 0% is about no effect; the text of the record puts the active cut at 80%
Target sequence (Q9GZU1 whole entry, looked up): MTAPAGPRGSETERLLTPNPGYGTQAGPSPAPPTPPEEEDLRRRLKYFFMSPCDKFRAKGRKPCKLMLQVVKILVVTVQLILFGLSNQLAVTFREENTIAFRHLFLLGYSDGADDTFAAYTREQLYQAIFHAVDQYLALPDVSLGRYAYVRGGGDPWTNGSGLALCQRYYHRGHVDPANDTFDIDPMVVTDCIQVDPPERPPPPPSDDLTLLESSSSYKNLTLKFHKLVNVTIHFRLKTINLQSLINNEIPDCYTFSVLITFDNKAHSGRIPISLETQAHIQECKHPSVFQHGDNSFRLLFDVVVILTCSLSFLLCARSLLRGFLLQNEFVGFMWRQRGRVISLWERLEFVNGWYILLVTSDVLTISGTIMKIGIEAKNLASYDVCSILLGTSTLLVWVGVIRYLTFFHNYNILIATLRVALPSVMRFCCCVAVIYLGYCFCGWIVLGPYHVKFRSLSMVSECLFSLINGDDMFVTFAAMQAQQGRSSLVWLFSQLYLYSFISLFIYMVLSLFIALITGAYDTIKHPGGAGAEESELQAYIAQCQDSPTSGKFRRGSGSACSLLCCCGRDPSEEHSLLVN
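Kinetic FDSS Ca2+ read in Tet-induced TRPML1-DL cells (ABD Ca8 dye plus quencher, 45-90 min RT loading): baseline, then compound, then 110 s agonist window; EC80 agonist 54-4 at 4uM final added afterwards for a 110 s antagonist window.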
TRPML1 inh – human mucolipin-1 channel inhibition; Q9GZU1; TRPML1-inducible cells, Ca2+ dye fluorescence, FDSS; hits give low values; inhibition of EC80 agonist-evoked calcium signal; activity change, negative = inhibition, % (concentration not given with the values); 390,000 compounds, 0.02% hits; in the data active means activity change below about -50%; inconclusive means about -30% to -50%; inactive means above about -30%;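 further: stimulus is agonist 54-4 at its EC80 concentration; on the % scale 0 is the no-effect control and ±100 the full control effect; the text of the record puts the active cut at -80%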
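Calcium fluorescence in TRPML1-DL cells induced overnight with Tet: a 110 s read after compound pin addition, then a 110 s antagonist read after challenge with 54-4 at 4 uM final (EC80).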
gsp ag – gsp mutant agonism. Potency, µM (titrated, usually from 76.9 µM), inactives show at the highest dose activation (cAMP increase), hits mostly activators. gsp mutant cells, cAMP HTRF, 30 min; control for the full effect not named in the record. 340,000 compounds, 0.13% hits; active = well fitted activation curve with a large enough effect; inconclusive = small, poorly fitted or top-dose-only effect, or another doubt; inactive = no such curve, though single readings can be large or run the other way; cell line not stated here;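 further: phosphodiesterase inhibitor Ro 20-1724 added with compounds to block cAMP breakdown; potency means the concentration at half of the fitted maximal effect; nearly all actives have a fitted effect of over 60% in size; about a fifth of the inactives were tested at one dose only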
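Cells in DMEM/10% FBS with G418 were pretreated with compounds in DMSO plus […] (300 uM stock) for 30 min at 37C. cAMP was measured by HTRF (cAMP-d2 plus anti-cAMP antibody-K) after 30 min at room temperature.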
Starred values were filed as active, the others as inactive; u = inconclusive; x = not tested or not shown; & = joins results of further samples; [ ] = dose if it differs, or a comment.

The first 5 records as a preview:
SMILES	Menin MLL FP FL	ClpP mod	gsp antag	TRPML1 agonist	TRPML1 inh	gsp ag
COc1ccc(C2(C)NC(=O)N(CC(=O)Nc3cccnc3Cl)C2=O)cc1 (configuration not stated)	-0.8	0.5%	23%	6.8	-1	-6%[15.4 µM]
CN(C)c1cccc(C(=O)Nc2ccc3nc4n(c(=O)c3c2)CCCCC4)c1	0.4	-8.1%	-12%	-1.2	0	23%
CCc1nnc(NC(=O)CSc2nc3ccccc3o2)s1	-0.4	0.9%	7%	0.6	4	u
Cc1cccc2[nH]c(SCC(=O)O)nc12	0.6	x	5%	1.0	7	3%[15.4 µM]
COC(=O)c1cccc(C23CC4(C2)[C@H](CN(Cc2cccnc2)[C@@H]4c2ccccc2)C3c2ccccc2)c1 (some centres not stated)	9.8&16	-3.7%	-8%	2.1	50	x

The listing (from the top)
SMILES	Menin MLL FP FL	ClpP mod	gsp antag	TRPML1 agonist	TRPML1 inh	gsp ag
COc1ccc(C2(C)NC(=O)N(CC(=O)Nc3cccnc3Cl)C2=O)cc1 (configuration not stated)	-0.8	0.5%	23%	6.8	-1	-6%[15.4 µM]
CN(C)c1cccc(C(=O)Nc2ccc3nc4n(c(=O)c3c2)CCCCC4)c1	0.4	-8.1%	-12%	-1.2	0	23%
CCc1nnc(NC(=O)CSc2nc3ccccc3o2)s1	-0.4	0.9%	7%	0.6	4	u
Cc1cccc2[nH]c(SCC(=O)O)nc12	0.6	x	5%	1.0	7	3%[15.4 µM]
COC(=O)c1cccc(C23CC4(C2)[C@H](CN(Cc2cccnc2)[C@@H]4c2ccccc2)C3c2ccccc2)c1 (some centres not stated)	9.8&16	-3.7%	-8%	2.1	50	x
Cn1c(=O)c2c(O)cc(=O)[nH]c2n(-c2ccccc2)c1=O	-0.4	-0.8%	-7%	0.3	-6	13%
CC(C)Oc1ccccc1C(=O)NC(CO)C(=O)O (configuration not stated)	0.5	x	0%	0.0	21	-3%[15.4 µM]
Cc1ccccc1-n1nnnc1SCC(=O)NCC1CCCO1 (configuration not stated)	2.2	-0.7%	-6%	-0.3	-11	3%[15.4 µM]
C=CCOc1c(Br)cc(CNc2ccc(NC(=O)C(C)C)cc2)cc1OCC	5.8	-1.3%	28%	2.4	11	-9%
Cc1nc2ccccc2n1CCC(=O)O	3.9	-0.8%	-2%	-0.3	-1	-22%
Cc1cc(C)n2nc(C(=O)N/N=C/c3ccc(Cl)cc3)nc2n1	-1.2	-2.6%	-13%	0.2	20	15%
Cc1cccc(N=C2NN=C(c3c[nH]c4ccccc34)CS2)c1	6.4	0.3%	-16%	0.5	7	3%
COc1ccc(C(=O)N2CCc3cc(OC)c(OC)cc3C2c2cccc([N+](=O)[O-])c2)cc1OC (configuration not stated)	2.8	5.6%	-9%	0.3	30	15%
Cc1ccccc1-n1c(SCC(=O)Nc2ccc(Cl)cc2Cl)nc(O)cc1=O	x	-0.5%	x	0.5	-8	x
COc1ccccc1NS(=O)(=O)c1cccc2nsnc12	1.7	x	4%	1.3	1	0%[15.4 µM]
Cc1cc(C(=O)Nc2ccncc2)ccc1[N+](=O)[O-]	4.9	4.3%	8%	-0.7	-16	-3%[15.4 µM]
CCOC(=O)N1CCN(C(=O)Nc2cccc(Cl)c2)CC1	2.2	0.5%	-11%	2.8	29	-18%
CCC(C)c1ccccc1OCCCNC1CCCC1 (configuration not stated)	0.1	0.0%	12%	-0.3	3	-5%
N#Cc1nc(-c2ccccc2Cl)oc1N1CCN(C(=O)c2ccco2)CC1	0.3	3.1%	-3%	0.3	-12	u
O=C(Cc1cccs1)Nc1ccc(-c2nc3ccccc3[nH]2)cc1	0.0	u	11%	-1.2	2	u
CCCn1c(SCC(=O)Nc2cc(Cl)ccc2OC)nc(O)cc1=O	x	-0.6%	-25%	1.7	-10	-8%
CCn1cc(C(=O)N(CCC(C)C)c2c(N)n(Cc3ccccc3)c(=O)[nH]c2=O)c(=O)c2ccc(C)nc21	-3.5	x	7%	0.2	-7	-1%
CCc1ccc(NC(=O)c2cc(CC(C)C)on2)cc1	1.1	0.5%	3%	0.2	20	-26%
C=CCn1c(CNS(=O)(=O)c2ccc(Br)cc2)n[nH]c1=S	x	0.6%	1%	-0.4	-2	-2%
COc1ccc(S(=O)(=O)N2CCN(C(=O)c3cc(-c4ccccc4OC)n[nH]3)CC2)cc1	1.6	-0.4%	-19%	1.8	2	0%
Continuation:
SMILES	Menin MLL FP FL	ClpP mod	gsp antag	TRPML1 agonist	TRPML1 inh	gsp ag
COc1ccc(NC(=S)NC(NC(=O)c2cccc(C)c2)C(Cl)(Cl)Cl)c([N+](=O)[O-])c1 (configuration not stated)	0.7	0.7%	u	-1.2	-4	2%
Cn1c(=O)oc2cc(S(=O)(=O)N3CCCC(C(=O)NCc4cccs4)C3)ccc21 (configuration not stated)	2.1	1.4%	-3%	1.8	-14	12%
COc1ccccc1NC(=O)NNC(=O)c1ccc(-c2ccccc2)cc1	0.0	0.8%	-1%	1.2	15	10%
O=C(CSc1nc2ccsc2c(=O)n1CC1CCC(C(=O)O)CC1)NCCc1ccc(Cl)cc1 (configuration not stated)	4.2	-0.6%	u	0.7	-19	-41%[inhibitor]
Cc1cccc(N2CCN(S(=O)(=O)c3ccc(-c4cc(C(F)(F)F)on4)s3)CC2)c1C	x	-8.3%	x	0.7	-3	x
CC1CCCN(CC(O)CN)C1 (configuration not stated)	2.7	-1.8%	3%	0.1	-5	-37%[inhibitor]
CCN(CC)c1ncnc2c1cnn2-c1cc(Cl)ccc1C	x	-0.7%	x	0.3	30	x
N#CC1=C(N)OC(c2ccccc2)=C(C#N)C1c1ccc2c(c1)OCO2 (configuration not stated)	6.0	0.4%	-6%	0.3	0	-3%
CC1=NN(c2ccccc2)C(=O)/C1=C\c1ccc(Br)s1	0.6	0.2%	-17%	0.7	3	u
C#CCOCCOCCOCCNc1nc(N2CCN(C(=O)[C@H](CCCCN)n3cc([C@@H](N)[C@H](C)CC)nn3)CC2)nc(N2CCN(C(=O)[C@H](CCCCN)n3cc([C@@H](N)CC(N)=O)nn3)CC2)n1	x	-0.6%	6%	-0.2	6	-21%
COc1ccc(C2C(C(=O)O)CC(=O)N2C2CCCCC2)cc1 (configuration not stated)	-0.8	-0.4%	-2%	1.0	-16	-31%
O=C(CCc1nnc2ccc(NCc3ccccc3Cl)nn12)NC1CCCCC1	11	-2.4%	6%	-1.1	1	u
CCc1ccc(S(=O)(=O)Nc2cc3c(cc2C)n(C)c(=O)c(=O)n3C)cc1	x	-5.7%	x	2.0	-13	x
CC(CN1CCOCC1)c1ccccc1 (configuration not stated)	-0.3	-13%	7%	-0.2	6	4%
C=C(C)[C@@H]1CC[C@]2(C(=O)O)CC[C@]3(C)[C@H](CC[C@@H]4[C@@]5(C)CC[C@H](O)C(C)(C)[C@@H]5CC[C@]43C)[C@@H]12	-2.0	0.5%	-4%	0.4	-5	x
C=CCN1C(=O)CSC1=Nc1ccc(C(=O)O)cc1	-0.2	0.7%	4%	-0.9	21	-33%[inhibitor]
CC(C)(C)Nc1ncnc2c1cnn2-c1ccccc1	-0.6	-18%	-14%	-0.1	-6	u
COc1ccc(NC(=O)CSc2ncnc3c2sc2ccccc23)c(OC)c1	5.5	-1.0%	7%	-0.3	-19	11%[15.4 µM]
CCCC1NC(=O)c2cc3ccccc3cc2-n2c1nc1ccc(C)cc1c2=O (configuration not stated)	x	-7.0%	x	0.1	-8	u
CCOC(=O)C1(Cc2ccccc2C)CCCN(S(=O)(=O)c2cccnc2)C1 (configuration not stated)	-0.2	-0.7%	3%	-0.7	-3	7%[15.4 µM]
COC(=O)C1(C)CN(S(=O)(=O)c2ccc(C)cc2)c2cc(OC)ccc2C1=O (configuration not stated)	6.4	13µM*	-18%	2.4	43	6%
Cc1cc(C(C)(C)C)c(O)c(C(C)(C)C)c1	-0.4&1.7	1.7%	3%	-0.7	10	x
Cc1ccc(S(=O)(=O)c2cn(Cc3ccccc3)c3cc(N4CCCCC4)c(F)cc3c2=O)cc1	x	u	x	-0.2	7	x
NC(=O)CSc1nnc(-c2ccoc2)o1	-0.3	-0.2%	7%	-0.3	13	-24%
O=C(NCc1ccccc1)C(c1cccnc1)N(C(=O)c1csnn1)c1ccc(F)cc1 (configuration not stated)	4.4	x	4%	-0.3	-15	-31%

Just Menin MLL FP FL, for some of the entries so far:
mol	Menin MLL FP FL
CC(CN1CCOCC1)c1ccccc1 (configuration not stated)	-0.3
C=C(C)[C@@H]1CC[C@]2(C(=O)O)CC[C@]3(C)[C@H](CC[C@@H]4[C@@]5(C)CC[C@H](O)C(C)(C)[C@@H]5CC[C@]43C)[C@@H]12	-2.0

Following part.
SMILES	Menin MLL FP FL	ClpP mod	gsp antag	TRPML1 agonist	TRPML1 inh	gsp ag
Cc1ccc(C)c(OCc2n[nH]c(=S)o2)c1	2.0	x	-4%	0.8	16	10%[15.4 µM]
COC(=O)c1cccc(Oc2cccc(C(F)(F)F)c2)n1	-0.4	-1.9%	u	1.3	4	19%
O=S(=O)(NCC1CCCO1)c1ccc(Cl)c(C(F)(F)F)c1 (configuration not stated)	-0.6	-0.2%	-7%	1.2	16	-3%
COc1ccc(N(C)S(=O)(=O)c2cccc(C(=O)NCC3CCCCC3)c2)cc1	1.7	x	-19%	0.8	12	-12%[15.4 µM]
CC1(c2ccccc2)NC(=O)N(CC(=O)NNC(=O)c2ccccc2)C1=O (configuration not stated)	-0.1	-3.2%	13%	0.0	5	u
COc1ccc(Cc2nnc(NC(=O)Nc3ccccc3F)s2)cc1OC	-1.0	1.0%	-5%	0.2	16	u
C=CCN1CCOc2ccc(C)cc2S1(=O)=O	x	0.2%	11%	1.7	26	x
CC(C)=CC(=O)N1CCCC(N2CCN(c3ccccc3C)CC2)C1 (configuration not stated)	1.0	x	0%	0.3	-6	-33%
OC(COCc1cccs1)CN1CCN(c2cccc(Cl)c2)CC1 (configuration not stated)	0.6	u	10%	-0.4	1	-17%
Nc1nnc(SCC(=O)OCc2ccccc2)s1	-13	1.1%	-7%	-0.4	53	-4%[15.4 µM]
COc1ccc(CCNC(=O)CCCn2c(=O)c3ccccc3n(CC(=O)Nc3ccccc3C)c2=O)cc1OC	x	0.3%	x	0.3	12	x
O=C(Nc1ccc2c(c1)OCO2)N1CCN(c2ccc(F)cc2)CC1	-3.0	x	-3%	-0.3	1	0%
